CDC25B-CDK2 inh: human CDC25B-CDK2/CyclinA binding inhibition; AID 1259370; 94,000 compounds, 0.72% hits; HTRF CDC25B-CDK2/CyclinA binding, anti-His/anti-Flag; stronger effect = higher value; z-score (concentration not given with the values); P30305+P24941;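 also: score is relative to mean and SD of negative controls; strong numbers were not always called active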
TAR Tat displ: HIV-1 TAR-Tat binding disruption | z-score (test concentration not listed) | HIV-1 TAR RNA, Tat peptide displacement FRET; stronger effect = higher value | 100,000 compounds, 0.6% hits;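 also: score is relative to mean and SD of negative controls; some compounds called inactive have numbers as strong as hits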
The depositor's hits bear a star; . = not tested or not shown.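 The calls were made as follows: active = z-score from 3 up in half or more of its runs; inactive = the rest.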

molecule	CDC25B-CDK2 inh	TAR Tat displ
COc1cccc2c(=O)c(NC(=O)N3CCC(C(N)=O)CC3)c[nH]c12	-0.83	-0.07
CCCCCCSc1n[nH]c(=S)s1	0.61	.
Cc1nc(Nc2nc(-c3ccccc3)cc(=O)[nH]2)nc2c(C)cccc12	0.86	-0.49
CCCC1N=C2c3ccccc3N=C(SCC(=O)Nc3ccccc3F)N2C1=O (configuration not stated)	.	0.59
COC(=O)CNC(=O)c1ccccc1	-0.68	.
Cc1c2c(=O)n(-c3nc4ccccc4s3)nc-2cc(O)n1Cc1ccccc1	-1.71	0.06
COc1cc(NS(=O)(=O)c2ccc(/C=C/c3onc(C)c3[N+](=O)[O-])cc2)cc(OC)c1	.	0.99
CCn1c(C)c(C2=CCN(S(=O)(=O)c3ccccc3)CC2)c2ccccc21	-0.64	2.22
CCn1c(SCC(=O)Nc2cc(C)cc(C)c2)nnc1-c1nonc1NC(C)=O	1.24	0.2
Cc1cccc(OCc2nc(-c3ccncc3)no2)c1C	-1.65	0.1
CCC(Cc1ccccc1)NS(=O)(=O)c1ccc2c(c1)NC(=O)C(C)S2 (configuration not stated)	.	1.51
COCCCN1C(=O)c2cc3occc3n2CC1(C)C(=O)NC1CCCCC1C (configuration not stated)	.	4.75
COC(=O)c1ccc(C2C3=C(Nc4c2c(=O)[nH]c(=O)n4C)c2ccccc2C3=O)cc1 (configuration not stated)	-2.71	-0.41
O=c1nc2c(-c3ccc(Cl)cc3)n[nH]n2c2cc(Cl)ccc12	-0.65	1.64
O=C1C(=O)N(c2ccc(O)cc2)C(c2ccccc2F)/C1=C(/O)c1ccccc1 (configuration not stated)	0.51	1.09
CCN1CCN(c2oc(/C=C/c3ccc(OC)c(OC)c3)nc2C#N)CC1	-1.12	2.22
O=C(c1cccnc1)N1N=C2CCCCCC2C1(O)C(F)(F)F (configuration not stated)	-0.63	.
CN(CCCNC(=O)c1c(N2CCCC2=O)c2cc(F)ccc2n1C)C1CCCCC1	.	-0.95
CC(=O)Nc1nc2ccc(NC(=O)c3sc4ccccc4c3Cl)cc2s1	-1.51	0.15
Cc1ccc2cc3cc(C(=O)O)sc3nc2c1	-2.42	1.26
O=C(c1cnc2cc(-c3ccc(Cl)cc3)nn2c1)c1ccccc1O	-1.52	0.34
CC1=C(c2ccc(C(C)C)cc2)S(=O)(=O)N=C1N1CCC(C(=O)N2CCCCC2)CC1	.	1.12
Cc1ccc(C(CNC(=O)c2cc(-c3ccc4c(c3)OCCO4)on2)N(C)C)o1 (configuration not stated)	0.06	0.37
O=S(=O)(c1cc(Br)c(Br)s1)N1CCCCC1	0.22	.
Clc1ccc(OCc2nc(-c3cccs3)no2)cc1	-1.73	0.03
Cc1cccc(NC(=O)CSc2nc3ccc(N4C(=O)c5ccccc5C4=O)cc3s2)c1C	-3.58	.
Clc1ccccc1-c1nnc(C(Nc2ccccc2)c2ccccc2)o1 (configuration not stated)	-2.25	1.01
COc1ccc(-n2c(C)cc(CN)c2C)cc1	3.33	-1.43
O=C(O)/C=C/C(=O)NCc1ccncc1	-1.59	.
CCc1nc(SCc2cc(=O)n3oc(C)cc3n2)n[nH]1	.	0.73
Nc1nccnc1C(=O)Oc1ccccc1	-1.14	.
Cc1c(C(=O)NCC(c2ccco2)N2CCCC2)oc2ccc(F)cc12 (configuration not stated)	0.47	-1.43
Clc1nc(N2CCCCC2)c2c(ncn2Cc2ccccc2)n1	-0.98	.
S=C(NCc1ccco1)NCC1CC(c2ccccc2)=NO1 (configuration not stated)	-2.88	.
CN1C(=O)Cc2cc(NS(=O)(=O)c3ccccc3Br)ccc21	.	0.93
O=C(Cn1nc(-c2ccc(F)cc2)c2cnc3ccc(F)cc3c21)NC1CCCC1	.	-0.77
CC(=O)Oc1ccc2ccccc2c1C1OC(c2ccc(C)o2)=NN1C(C)=O (configuration not stated)	.	-0.07
CCc1nn2c(=O)c(S(=O)(=O)NCCCOC(C)C)c(C)nc2s1	-0.16	0.49
Cc1cc(C)c2oc(C(=O)Nc3sc4c(c3C(=O)NCc3ccco3)CCC4)cc(=O)c2c1	-1.25	-0.05
Brc1cccc(CN2CCC(N3CCCCCC3)CC2)c1	0.33	.
Cc1cc(=O)oc2c1c(C)nn2-c1ccccc1	1.33	.
O=C1CSC(c2ccncc2)N1CC1CC1 (configuration not stated)	-2.22	.
COc1ccc(N2C(=O)c3cccnc3C2Nc2cccc(SC)c2)cc1 (configuration not stated)	.	1.96
Cc1ccc(-c2nc(CSCc3csc(C)c3)c(C)o2)cc1	.	-0.44
CC1CCCC(C)N1C(=O)CSCc1cnn(-c2ccccc2)c1-n1cccc1 (configuration not stated)	-1.99	-0.76
N#CC1=C(SCc2ccccc2)SC(c2ccc(O)c(O)c2)NC1=O (configuration not stated)	-2.5	0.79
CCCc1nn2c(=O)cc(COC(=O)c3ccc(C(C)(C)C)cc3)nc2s1	.	-0.61
CCOc1ccc2nc(NC(=O)c3nc(SCC)ncc3Cl)sc2c1	-1.54	1.64
Cc1ccc(-c2nc3nc[nH]n3c2Nc2ccccc2)o1	0.18	.
O=C(O)c1ccc2c(=O)c(C(=O)O)c[nH]c2c1	-0.18	.
CCOC(=O)N1CCN(C(=O)Cn2nc(CC)n3c(cc4sccc43)c2=O)CC1	-0.7	0.09
O=C(NC1CCCC1)c1ccc2snnc2c1	-0.41	0.12
Cc1csc2nc(CSc3nc4ccccc4o3)cn12	.	0.47
O=C(Nc1ccc(Cl)cc1)Nc1ccc(Cc2ccncc2)cc1	-2.1	.
CC1=C(c2ccc(Cl)cc2)S(=O)(=O)N=C1Nc1ccc(F)cc1C	-2.89	-0.72
O=C1NC(=O)C(CC(=O)c2ccccc2)S1 (configuration not stated)	-1.02	-0.28
COc1ccc(OC)c2[nH]c(=O)c(CCNC(=O)C3CC3)cc12	-2.89	.
COCCOC(=O)C1=C(C)NC2=C(C(=O)CCC2)C1c1ccccc1OC(C)C (configuration not stated)	-2.34	0.41
Cc1cc2c(cc1S(=O)(=O)Nc1cccc(Cl)c1C)OCCN2C	.	0.97
CCOC(=O)C1CCN(c2nnc(-n3c(C)ccc3C)s2)CC1	4	-0.52

Profiles from above. Screens in order: CDC25B-CDK2 inh, TAR Tat displ
`O=C(NC1CCCC1)c1ccc2snnc2c1` across the screens: -0.41, 0.12
`CC1=C(c2ccc(Cl)cc2)S(=O)(=O)N=C1Nc1ccc(F)cc1C` across the screens: -2.89, -0.72
`COCCOC(=O)C1=C(C)NC2=C(C(=O)CCC2)C1c1ccccc1OC(C)C` (configuration not stated) across the screens: -2.34, 0.41

Next compounds follow:
molecule	CDC25B-CDK2 inh	TAR Tat displ
N#CC1=C(SCC(=O)Nc2ccc(F)cc2)NC(=O)CC1c1ccco1 (configuration not stated)	-0.57	0.22
CC(=O)N1CCc2cc(Br)cc(S(=O)(=O)Nc3c(C)nc4nc[nH]n4c3=O)c21	-1.04	0.94
O=C(Cc1ccc(F)cc1)N1CCC(n2nc(-c3ccccc3)oc2=O)CC1	-1.78	2.86
O=C(COCc1cc(-c2ccc3c(c2)OCO3)on1)NCC1CCCO1 (configuration not stated)	.	-0.94
N#Cc1c(N)nc2c(c1-c1cccs1)CCCCCC2	-3.71	.
COc1cccc(-c2nc3c(C#N)c[nH]n3c2NC2CCCC(C)C2C)c1 (configuration not stated)	-1.75	1.69
Cc1nn(-c2nc3ccccc3[nH]2)c2c1C(c1ccc(Br)cc1)CC(=O)N2 (configuration not stated)	.	2.54
NC(=O)CSc1nnc(CCSCc2ccccc2)n1-c1ccccc1	-1.22	1.55
CCC(=O)Nc1cnc(OC)c(C(F)(F)F)c1	-0.86	.
CCC(CC)C(=O)NCCc1cc2c(OC)ccc(OC)c2[nH]c1=O	-1.03	.
CCOC(=O)N/N=C(\CC)c1ccc(-c2ccccc2F)cc1	-1.73	.
CCOC(=O)C1C2C=CC3(CN(c4ccc(Cl)c(F)c4)C(=O)C13)O2 (configuration not stated)	0.03	1.04

Retrieved by compound from the entries so far, two records:
molecule	CDC25B-CDK2 inh	TAR Tat displ
S=C(NCc1ccco1)NCC1CC(c2ccccc2)=NO1 (configuration not stated)	-2.88	.
Cc1cccc(OCc2nc(-c3ccncc3)no2)c1C	-1.65	0.1

(list continues)
molecule	CDC25B-CDK2 inh	TAR Tat displ
CCNC(=O)[C@H]1O[C@@H](n2cnc3c(N)nc(NCCc4ccc(CCC(=O)O)cc4)nc32)C(O)[C@H]1O (some centres not stated)	-1.42	.
CC1CCCCC1NC(=O)Cn1ncn2c(cc3sccc32)c1=O (configuration not stated)	0.36	0
CC1(C)C2CCC1(CS(=O)(=O)O)C(=NN(c1ccccc1)c1ccccc1)C2 (configuration not stated)	-1.24	.
CCc1ccc(C2c3c(-c4ccc(F)cc4)n[nH]c(=O)c3Nc3nnnn32)cc1 (configuration not stated)	-0.79	2.34
Cc1cccc(C(=O)Nc2nnc(SCc3cc(=O)n4ccsc4n3)s2)c1	.	2.26
CCOC(=O)c1c(NC(=O)C2Cc3ccc(C)cc3C(=O)O2)sc(C)c1C (configuration not stated)	-1.47	1.72
C=CCOC(=O)C1=C(C)NC2=C(C(=O)CCC2)C1c1ccc(OC)c(OC)c1 (configuration not stated)	-1.36	0.5
CCCCCNc1nc2c(S(=O)(=O)c3ccccc3)nnn2c2ccccc12	-1.43	0.14
CSc1cccc(N2C(=O)N(Cc3ccccc3Cl)C3CS(=O)(=O)CC32)c1 (configuration not stated)	.	-1.23
COc1ccc(OC)c(NC(=O)NCCc2csc3c2CCCC3)c1	.	0.78
COc1cc(/C=C2\SC(=S)N(Cc3ccco3)C2=O)ccc1OC(=O)c1cccs1	0.97	.
O=C1c2ccccc2C(Nc2ccc3c(c2)OCCO3)N1Cc1ccccc1 (configuration not stated)	-0.74	.
COC(=O)CCC(C)[C@H]1CCC2C3C(C[C@H](O)[C@@]21C)[C@@]1(C)CC[C@@H](O)C[C@H]1C[C@H]3O (some centres not stated)	.	0.31
CN1C(=O)C2(c3ccccc31)C(C(=O)Nc1cc(F)ccc1F)CC1CCCN12 (configuration not stated)	.	0.25
CCN1CSC(=S)N(Cc2ccccc2)C1	-0.68	0.84
Cn1c(OCc2ccc3c(c2)OCO3)nc2c1c(=O)n(Cc1ccccc1F)c(=O)n2C	0.98	1.12
CN1CCN(c2ccc(CNC(=O)c3cccnc3Oc3ccc(Cl)cc3)cc2)CC1	-1.35	.
CC(CN(CCS(=O)(=O)N1CCNCC1)S(=O)(=O)c1ccccc1)c1ccccc1 (configuration not stated)	.	0.69
Cc1[nH]n(C)c(=O)c1N=Nc1ccc(C(C)C)cc1	-2.96	.
Cn1c(=O)oc2cc(S(=O)(=O)CCC(=O)N(CCc3ccccc3)Cc3ccccc3)ccc21	.	-0.63
CCOC(=O)C1CN(C2CCCCC2)C(=O)C1=O (configuration not stated)	-0.55	.
O=C(Nc1ccc(Cl)cc1)C(=O)c1c[nH]c2ccccc12	-0.37	1.12
Cn1c(=O)c2cn3c(c2n(C)c1=O)C(c1c(F)cccc1Cl)Nc1ccccc1-3 (configuration not stated)	-0.29	2.86
Cc1cccc(S(=O)(=O)NCCc2csc3nc(-c4ccccc4C)nn23)c1	.	-0.1
O=C(c1ccc2c(c1)OCCO2)N1CCCN(C(=O)c2ccc3c(c2)OCCO3)CC1	.	0.6
CNC(=O)Oc1ccc2c(c1)[C@]1(C)CCN(C)C1N2C (some centres not stated)	.	-0.58
O=C(Cn1cnc(S(=O)(=O)N2CCOCC2)c1)N(Cc1ccco1)C1CCCCC1	.	1.14
Cn1cc(-c2cc3n(n2)CCC(=O)N3CC(=O)N2CCN(c3ccccc3)CC2)c2ccccc21	.	1.31
O=S(=O)(CCSc1ncccn1)c1ccc(F)cc1	-1.31	.
Cc1cc(N2CCOCC2)n2nc(C)c(-c3ccc(Cl)cc3)c2n1	.	1.8
O=C(CCSc1nc2ccccc2s1)Nc1ccc(Br)cc1	-1.8	1.28
CCn1c(-c2ccc(N(C)C)cc2)nc2ccccc21	-3.17	2.3
O=c1c2ccccc2c2ccccc2c(=O)n1-c1cccc(F)c1	-0.38	.
CCCOC(=O)C1=C(C)NC2=C(C(=O)CC(c3ccc(OC)cc3)C2)C1c1ccc(OC)cc1OC (configuration not stated)	-1	0.76
CN1C(=O)c2ccccc2C(C(=O)Nc2ccc3c(c2)OCO3)C1c1cn(C)c2ccccc12 (configuration not stated)	-2.4	.
Cc1nnsc1-c1nc(-c2ccc(Cl)s2)cs1	-1.7	.
Cc1cc(-c2ccc(C(C)C)c(S(=O)(=O)Nc3ccccn3)c2)on1	.	1.08
CCc1ccc(C)nc1NC(=O)c1snnc1C	-0.46	.
CCc1cc(C(=O)NC2CCCCC2)no1	-1.19	-1.02
O=C(O)CN1C(=O)CC(c2ccco2)Sc2ccccc21 (configuration not stated)	-1.61	.

Taken from the results shown for reference:
molecule	CDC25B-CDK2 inh	TAR Tat displ
Cc1nnsc1-c1nc(-c2ccc(Cl)s2)cs1	-1.7	.
Cc1cc(-c2ccc(C(C)C)c(S(=O)(=O)Nc3ccccn3)c2)on1	.	1.08
CCc1ccc(C)nc1NC(=O)c1snnc1C	-0.46	.
CCc1cc(C(=O)NC2CCCCC2)no1	-1.19	-1.02
O=C(O)CN1C(=O)CC(c2ccco2)Sc2ccccc21 (configuration not stated)	-1.61	.
